# Source: PubChem
# NPYLR7 agonist: agonists of mosquito NPYLR7 receptor, primary screen, cell-based, Aedes aegypti, calcium fluorescence, mosquito biting behavior | Aedes aegypti neuropeptide Y-like receptor 7 (NPYLR7) | HEK293T NPYLR7/Galpha15, GCaMP6s calcium fluorescence | activation, % at 10 µM | 270,000 compounds, 0.15% hits | AID 1259423, 2018; in the data active = activation above about 40%;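 also: 0% = vehicle and 100% = reference agonist at the receptor; some compounds past the cut are filed as inactive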
# NPYLR7 agonist max-min: also measured in NPYLR7 agonist; calls as there; activation, %; measured here: Max-Min RFU normalised activation; some inactives read as strong as hits;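 span of the calcium signal over five minutes; 0% = vehicle and 100% = native peptide agonist; compound fluorescence can raise it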
# Active calls of the source: *; & = joins results of further samples. Some of the compounds tested; count on the stated rates, not on these rows.
Structure	NPYLR7 agonist max-min	NPYLR7 agonist
Cc1ccc(C(C(=O)NCc2cccnc2N(C)C)N(C)C)cc1 (stereo unspecified)	7	8
COCCOc1nc(-c2cccs2)n(-c2ccc(NC(=O)c3cccs3)cc2)n1	6	-4
COc1ccc(NC(=O)C2(C)CCN2CCc2ccccc2)cc1OC (stereo unspecified)	-5	-3
Cn1cc(-c2nnnn2-c2ccc(Cl)cc2)c2ccccc21	9	10
COC(=O)N1CCc2c(sc(NC(=O)c3ccccc3)c2-c2nc3ccccc3s2)C1	8	10
C#CCn1c(C2CCCCC2)nc2ccccc21	4	2
CCOc1ccccc1C(=O)N1CCCC1C(=O)NCc1cccs1 (stereo unspecified)	-5	-5
Cc1ccnc(CC(C)N(C)C(=O)c2cc3ccccc3s2)c1 (stereo unspecified)	-6	-3
CCCS(=O)(=O)c1c(S(=O)(=O)CCC)c2cnccn2c1C(=O)c1ccc(CC)cc1	-4	-2
O=C(c1cccnc1Oc1ccc(Cl)cc1)N1CCN(CCCOC(c2ccc(Cl)cc2)c2ccc(Cl)cc2)CC1	-5	1
COC(=O)c1c(NC(=O)C=Cc2ccco2)sc2c1CCC2	7	9
O=C1OC(/C=C/c2ccccc2)=NC/1=C/c1ccc(Br)cc1	-5	-2
COc1cccc2cc(-c3nnc(NC(=O)C4CCCN(S(C)(=O)=O)C4)o3)oc12 (stereo unspecified)	0	0
CCCn1c(O)c(N=NC(=O)c2ccc(OC)c(OC)c2)c2ccccc21	-2	4
CCn1cc(C(=O)N2CCN(C(=O)CCC3CCCC3)CC2)c2nn(-c3ccccc3)c(=O)c-2c1	-3	0
CCOc1ccc(N(CC(=O)Nc2cccc(Cl)c2)S(C)(=O)=O)cc1	-9	-4
Cc1ccc(CSc2[nH]c(=O)ncc2C)cc1	1	2
Cc1onc(-c2ccccc2)c1C(=O)N1CCCC(N2CCCC2)C1 (stereo unspecified)	0	5
O=C(NCC1CCCN(C(=O)C#Cc2ccccc2)C1)c1ccc(-c2ccccc2)cc1 (stereo unspecified)	-12	-7
COc1cccc(-c2cc(C(=O)O)n3nc(-c4ccccc4)cc3n2)c1	-1	-4
CC(C)NCC(=O)N(Cc1ccc2c(c1)OCO2)Cc1ccco1	8	-1
CC1CCC(C(N)=O)CN1c1nc(-c2cccnc2)nc2sc3c(c12)CCCC3 (stereo unspecified)	-3	-3
O=C(CN(Cc1ccccc1)c1nc(Cc2ccc(Cl)cc2)ns1)N1CCN(Cc2ccccc2)CC1	-9	-7
CC(=O)NCC1CCN(C(=O)c2cc(Cl)c(Cl)n2C)CC1	2	6
CC(=O)Nc1cccc(NC(=O)C(SC(=S)N2CCCC2)C(C)C)c1 (stereo unspecified)	6	5

# Looked up by structure from the list above:
Structure	NPYLR7 agonist max-min	NPYLR7 agonist
Cc1onc(-c2ccccc2)c1C(=O)N1CCCC(N2CCCC2)C1 (stereo unspecified)	0	5
CCCS(=O)(=O)c1c(S(=O)(=O)CCC)c2cnccn2c1C(=O)c1ccc(CC)cc1	-4	-2
Cc1ccnc(CC(C)N(C)C(=O)c2cc3ccccc3s2)c1 (stereo unspecified)	-6	-3
COc1cccc(-c2cc(C(=O)O)n3nc(-c4ccccc4)cc3n2)c1	-1	-4

# Later entries.
Structure	NPYLR7 agonist max-min	NPYLR7 agonist
O=C(NCC1CCCN(C(=O)c2cscn2)C1)c1ccc(-c2ccccc2)cc1 (stereo unspecified)	-9	-9
COC(=O)C(C)(C)NCCc1ccccn1	-7	-2
CCOC(=O)C1CCCN(C(=O)CCN(CC(C)C)c2nc(Cc3ccc(C)cc3)ns2)C1 (stereo unspecified)	15	6
COC(=O)c1c(NC(=O)CC2SC(N3CCOCC3)=NC2=O)sc(C)c1C (stereo unspecified)	21	-1
COc1ccc(F)c(-c2nccc(CCC(F)(F)F)n2)c1	-3	6
O=C(COC(=O)c1ccc2c(c1)C(=O)N(c1ccccc1)C2=O)c1ccccc1	-4	-2
Cc1cccc(CSc2nnc(C(Cc3ccccc3)NC(=O)c3cccc(Cl)c3)n2-c2ccc([N+](=O)[O-])cc2)c1 (stereo unspecified)	4	-1
CC(NC1CCCc2ccccc21)C(=O)c1c[nH]c2ccccc12 (stereo unspecified)	3	1
CCN1Cc2ccccc2CC1C(=O)N(CCO)Cc1ccco1 (stereo unspecified)	-1	1
CCc1nc2ccc(C(=O)Nc3ccc4c(c3)OCC(=O)N4)cn2c1N(CCC(C)C)CCN(C)C	-18	-15
O=c1c2c3c(sc2ncn1CC(O)COCc1ccccc1F)CCCC3 (stereo unspecified)	1	7
Cn1cnc2cc(C(=O)N3CCCC(CCc4ccccc4F)C3)ccc2c1=O (stereo unspecified)	2	9
CC1C(c2ccc(F)cc2)=[N+]([O-])C(C)(c2ccc([N+](=O)[O-])cc2)N1O (stereo unspecified)	-4	-2
CCCN(CCC)c1nc(N)c(C#N)c(CC#N)c1C#N	2	4
COCCN(CC(=O)N(Cc1cccn1Cc1ccccc1)C1CCCCC1)C(=O)c1cc(C(F)(F)F)cc(C(F)(F)F)c1	15	11
CNC(=O)[C@H]1C[C@]2(CCCCN(CCO)C2=O)N(C(=O)CC(C)(C)C)[C@H]1c1ccco1	6	0
C=CCN1C(=O)CC(Nc2ccc(N3CCCCC3)cc2)C1=O (stereo unspecified)	9	5
CCn1c(C2CCCN(C(=O)c3ccc4scnc4c3)C2)nn(C)c1=O (stereo unspecified)	6	15
Cc1ncc2c(c1CNC(=O)c1ccc3c(c1)OCO3)CCN(C(=O)CCc1c[nH]c3ccccc13)C2	13	26
COc1cc2c(cc1OC)-c1nnnn1C(C)(C)C2	-2	-1
Cc1cc(Oc2ccc(Cl)cc2)nc(SCc2cccc(C#N)c2)n1	28	18
Cc1cc(P(=O)(N2CCOCC2)N2CCOCC2)c(C)n1-c1ccc(N(C)C)cc1	2	5
CCCCN=c1scc(C)n1N=Cc1ccco1	12	14
CC1CN(c2cc(Oc3ccccc3Cl)ncn2)CCN1C(=O)c1cccc(Cl)c1 (stereo unspecified)	3	-1
COc1ccccc1NC(=O)Nc1ccc(N2CCC(Cc3ccccc3)CC2)c(C(=O)N2CCCC2)c1	24	22
COc1cccc(OCc2cc(C(=O)N3C[C@@H](C)O[C@@H](C)C3)n[nH]2)c1	-2	-1
COCCCN(C(=O)Nc1ccc(OC)c(Cl)c1)C1CCN(C)CC1	5	7
Cc1cc(C(=O)N(CCN(C)C)c2nc3c(F)cc(F)cc3s2)n(C)n1	0	2
CCOC(=O)c1c(C=CC(=O)O)c(C)n(CC)c1C	6	1
CCCNC(=O)Cn1c(=O)c2c(N3CCN(C(C)=O)CC3)ccnc2n(C)c1=O	-2	0
Cc1cc(C)cc(C(=O)Oc2cc(C)[nH]c(=O)c2[N+](=O)[O-])c1	-3	-5
CC1(C)C(NS(=O)(=O)C2CC2)C(C)(C)C1NS(=O)(=O)C1CC1 (stereo unspecified)	13	-1
Cc1cccc(CN2CCN(c3nc4c(c(=O)[nH]c(=O)n4C)n3CC(C)C)CC2)c1	19	16
FC(F)(F)c1cnc(N2CC(c3nc4ccccc4[nH]3)C2)c(Cl)c1	4	6
CCc1cc(CN2CCc3onc(-c4cccc5ccccc45)c3C2)[nH]n1	1	10
CCCCc1c(O)nc2n(c1=O)CCCS2	-5	-3
COC(=O)c1ccccc1N=Nc1c(N)[nH]n(-c2ccccc2)c1=O	-12	-2
O=C(NCCc1ccccc1)NCC1CN(c2ccccc2)C(=O)O1 (stereo unspecified)	3	4
Cc1cc(=O)[nH]c(-n2nc(C)c(CCC(=O)Nc3nc4ccccc4s3)c2C)n1	-3	-3
CCO[C@H]1COC[C@@H]1NC(=O)Cn1cnc2ccccc2c1=O	0	0
Fc1ccc(C2CC(c3ccc(N4CCOCC4)cc3)=Nc3nnnn32)cc1 (stereo unspecified)	19	24
NC1CCCN(c2ncccn2)C1 (stereo unspecified)	7	10
NNc1ccc(Cl)nn1	3	0
Cc1csc(SCC(=O)N2CCCC(c3nc(SCc4cccnc4)ncc3C)C2)n1 (stereo unspecified)	-10	-11
CCCCc1ccc(N2C(=NC(C)=O)SC3CS(=O)(=O)CC32)cc1 (stereo unspecified)	1	8
CCNC(=O)COc1ccc(C=C2N=C(c3ccc(F)cc3F)OC2=O)cc1OC	0	2
C=c1cc(C)n(CC(=O)Nc2ccc3c(c2)OCO3)c(=O)c1=C1N=C(c2ccc(OC)cc2)NO1	0	2
Cc1cccc(C(=O)N2CCCN(C(=O)NC3COc4ccccc43)CC2)c1 (stereo unspecified)	11	14
Cc1ccc(S(=O)(=O)Nc2ccc(N3CCCS3(=O)=O)cc2)c(C)c1	1	2
COCCNC(=O)Nc1cn(C)c2ccccc12	-11	-6

# The listing continues:
Structure	NPYLR7 agonist max-min	NPYLR7 agonist
CCOC(=O)c1ccc([N+](=O)[O-])cc1NC(C)=O	5	0
COc1cccc(C(=O)CSc2nnnn2-c2cc(C)cc(C)c2)c1	-2	1
O=C1COc2cc(S(=O)(=O)NCCc3ccc(F)cc3)c(Br)cc2N1	-1	-1
CCc1ccc(N2CN=c3sc(=Cc4ccc(OC)c(OC)c4)c(=O)n3C2)cc1	-9	-6
CN(C(=O)/C=C/c1ccc(OCc2ccccc2)cc1)C1CCS(=O)(=O)C1 (stereo unspecified)	2	8
C=C(C)CN=c1scc(-c2cc(OC)ccc2OC)n1N=CCCC	-1	2
O=S(=O)(Nc1cccc(-n2cnnn2)c1)c1ccc(Cl)s1	11	8
Cc1ccc(-c2nc3ccccn3c2NC(=O)CC(C)(C)C)cc1	1	-3
C=C[C@](C)(O)CCC=C(C)C	-12	-6
Cc1nc(SCC(=O)NC(C)(C#N)C(C)C)n(CC(C)C)c1C (stereo unspecified)	11	11
Cc1cc(C)nc(SCc2c(C(=O)NCc3ccc(F)cc3)nnn2-c2ccccc2)n1	-5	-3
COc1ccccc1N1CCN(c2ccc(NC(=O)Nc3ccc(Cl)cc3)cc2C(=O)N2CCCCC2)CC1	20	15
O=C(C1CC(=O)N(c2ccc3c(c2)OCO3)C1)N1CCCN(Cc2ccc(Cl)cc2)CC1 (stereo unspecified)	-12	1
Cn1cc(CN2CCN(C(=O)c3cccs3)CC2)c(-c2ccc3c(c2)OCCO3)n1	-1&-5	1&-2
c1cc2nnnn2nc1SC12CC3CC(CC(C3)C1)C2	5	9
CNC(=O)c1ccc(NC(=O)c2cccc(C)c2C)cc1	4	5
Cc1c(-c2ccc(F)cc2)[nH]c2ccc(CNC(=O)C3=NNC(=O)CC3)cc12	-3	0
C#CCn1c(C=Cc2ccccc2)nc2ccccc21	7	1
CCCCN(CC(=O)N(CCc1c[nH]c2ccccc12)Cc1ccc(F)cc1)C(=O)COCc1ccccc1	25	16
Cc1ccccc1C1CC1C(=O)NC(Cn1cncn1)c1ccccc1 (stereo unspecified)	3	6
CN1C(=O)COCc2c(-c3cnc4ccccc4c3)cccc21	-5	-6
CCC(C)N(CC(=O)N(Cc1cccn1Cc1ccccc1)C1CCCCC1)C(=O)C(C)C (stereo unspecified)	-5	-6
Cc1ccc(-c2csc3nc(-c4ccc(C)n(C)c4=O)[nH]c(=O)c23)s1	3	6
C=CCNC(=O)c1cc2sc(C)cc2n1Cc1ccccc1F	3	4
CC(C)SC(NC(=O)OCc1ccccc1)C(=O)N1CCC(Cc2ccccc2)CC1 (stereo unspecified)	-13	-10
CN(C)C(=O)c1cc(C(=O)c2ccccc2O)c[nH]1	-5	-3
CCC(C)c1ccc(-n2c(-c3cnc4ccccc4c3)nc3ccccc3c2=O)cc1 (stereo unspecified)	-1	3
Cc1ccc(CN(CCc2ccccc2)C(=O)CN(CC2CCCO2)C(=O)CCc2ccccc2)o1 (stereo unspecified)	23	15
Cc1cccnc1N1CCN(C(=O)Cc2c(C)[nH][nH]c2=O)CC1	5	8
COc1cccc(CC(=O)N2CCc3ccc(NC(=O)c4ccccc4Cl)cc3C2)c1	1	3
CCCCN(Cc1cccn1Cc1ccc(Br)cc1)C(=O)CN(CCCOCC)C(=O)Nc1c(C)cccc1C	-5	-6
COc1cccc(NC(=S)NNC(=O)CCn2cc([N+](=O)[O-])cn2)c1	5	-1
Cc1ccc(-c2cc(O)c3c(c2)CN(C(=O)C2CNCCO2)CCO3)s1 (stereo unspecified)	0	0
Cc1noc(C)c1CNC(=O)Cc1ccc(-n2cnnn2)cc1	4	4
O=C(C(=O)N(Cc1ccccc1)CC1CCC1)c1ccccc1	6	9
Cc1cc(C)n(CCCC(=O)N2CCO[C@@H]3CCCC[C@H]32)n1	18	24
CC1(C(=O)NS(=O)(=O)c2cccc(Cl)c2)CCN1C(=O)Cc1ccc(-c2ccccc2)cc1 (stereo unspecified)	-2	1
Cc1cccc(=O)n1CCCNC(=O)c1ccccc1C1CCNC1 (stereo unspecified)	-2	-2
CCCc1sc(C(=O)Nc2nccs2)cc1CC	4	6
O=C(NCc1nc(Cc2cccs2)no1)[C@@H]1CCCCN1	-5	-4
Cc1ccc(C)c(CN(Cc2nc(C(=O)NCCN3CCOCC3)co2)C(C)c2ccccc2)c1 (stereo unspecified)	5	12

# Entries listed so far containing a tert-butyl group, in the order listed:
Structure	NPYLR7 agonist max-min	NPYLR7 agonist
CNC(=O)[C@H]1C[C@]2(CCCCN(CCO)C2=O)N(C(=O)CC(C)(C)C)[C@H]1c1ccco1	6	0
Cc1ccc(-c2nc3ccccn3c2NC(=O)CC(C)(C)C)cc1	1	-3
